# Assay outcomes from PubChem BioAssay.
# A488 autofl – compound autofluorescence in A488 spectral region. max dye equivalency, M. compound autofluorescence, A488 spectral region, dye equivalency; hits give high values. 59,000 compounds, 0.1% hits; active = above 10 nM dye equivalent; inconclusive = 1 to 10 nM; inactive = 1 nM or less; about half of its hits are not listed in these tables;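 note: highest value over a series up to 38 µM; compound alone in buffer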
#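 Compounds pin-transferred into 100 mM Tris buffer, pH 8.0, incubated 15 min at room temperature, then imaged with 480 nm excitation/540 nm emission filters. Fluorescence converted to Alexa 488 dye-equivalent concentration via an on-plate six-point A488 standard curve.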
# TSHR agonist – activates the human thyroid stimulating hormone receptor | HEK293-CNG-TSHR cells (CNG channel as cAMP sensor), membrane potential dye, cAMP | Potency, µM (series often up to 57.1 µM), for the others: at the top dose activation, usual class: activators | 73,000 compounds, 0.48% hits | AID 926; active = well fitted activation curve of enough size with the parental cells flat; inconclusive = any curve in the parental cells; inactive = parental cells flat and receptor cells flat or falling; note: potency is the fitted concentration of half-maximal effect; % of control where 0% means no effect; weak receptor curves with flat parental cells got no call and are not listed
# Target sequence (P16473 whole entry, looked up): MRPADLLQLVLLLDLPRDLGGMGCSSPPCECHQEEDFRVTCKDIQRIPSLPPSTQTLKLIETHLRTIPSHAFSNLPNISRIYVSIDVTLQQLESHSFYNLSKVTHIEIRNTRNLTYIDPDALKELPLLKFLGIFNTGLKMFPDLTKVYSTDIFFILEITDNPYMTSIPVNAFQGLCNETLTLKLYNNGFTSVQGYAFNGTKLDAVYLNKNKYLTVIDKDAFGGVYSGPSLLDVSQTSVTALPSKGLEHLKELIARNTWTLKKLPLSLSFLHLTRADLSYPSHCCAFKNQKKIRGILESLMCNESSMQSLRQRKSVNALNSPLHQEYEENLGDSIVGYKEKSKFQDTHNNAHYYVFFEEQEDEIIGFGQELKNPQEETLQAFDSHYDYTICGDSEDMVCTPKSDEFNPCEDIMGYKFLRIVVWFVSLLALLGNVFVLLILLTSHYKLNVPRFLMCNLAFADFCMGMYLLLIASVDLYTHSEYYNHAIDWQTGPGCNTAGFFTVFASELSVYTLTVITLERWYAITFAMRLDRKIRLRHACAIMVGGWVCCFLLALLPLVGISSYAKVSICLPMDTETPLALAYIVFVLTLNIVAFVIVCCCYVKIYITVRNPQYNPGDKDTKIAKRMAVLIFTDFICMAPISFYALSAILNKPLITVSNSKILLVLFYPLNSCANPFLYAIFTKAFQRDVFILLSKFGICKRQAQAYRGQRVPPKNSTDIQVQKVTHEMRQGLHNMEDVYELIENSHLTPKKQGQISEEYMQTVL
#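 cAMP rise detected as CNG-channel membrane depolarization by fluorescent dye (emission 590 nm), 30 min after compound, following 60 min dye loading containing 100 uM RO 20-1724 at room temperature. Cells: TSHR/CNG HEK 293, with parental CNG HEK 293 as control.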
# A647 autofl – compound fluoresces in the A647 spectral region. Compound fluorescence, A647 channel (570/671 nm), Tris buffer. max dye-equivalent concentration, M. 59,000 tested, under 10 active; active means above 1 µM dye equivalent; inconclusive means 0.1 to 1 µM; inactive means 0.1 µM or less;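 note: values scaled relative to a standard on each plate; highest value over a series up to 38 µM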
#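 Each compound's intrinsic fluorescence at 570 nm excitation and 671 nm emission is measured across its concentration series in 100 mM Tris, pH 8.0, after 15 min at room temperature, and reported relative to an A647 curve.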
# AID923 – qHTS Assay for Allosteric/Competitive Inhibitors of Caspase-1: Spectroscopic Profiling in AFC Spectral Region. compound fluorescence, AFC spectral region (405/520 nm); almost no hit is shown here. Potency, µM (doses to about 57.5 µM), without a hit: at the top dose fluorescence increase, usual class: activators. 75,000 compounds, 1.1% hits. AID 923, 2007; active = well fitted activation curve with a large enough effect; inconclusive = small, poorly fitted or top-dose-only effect;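 note: potency is the fitted concentration of half-maximal effect; 0% is about no effect; scaled to a free AFC standard on each plate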
#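 Compound autofluorescence profiled at 405 nm ex/520 nm em during kinetic caspase 1 run (50 nM enzyme, 5 uM Ac-WEHD-AFC, HEPES pH 7.5, 10 mM DTT). Titration up to 57 uM; baseline from regression intercept, normalized to AFC standard curve.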
# Resorufin autofl – compounds fluorescent in resorufin spectral region | Compound fluorescence, resorufin region 547/598 nm, buffer; hits give high values | max dye-equivalent concentration, M | 59,000 compounds, 0.04% hits | AID 588; active = above 10 nM dye equivalent; inconclusive = 1 to 10 nM; inactive = 1 nM or less; a few of its hits are not listed in these tables; note: highest value over a series up to 38 µM
#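 Compounds in 100 mM Tris buffer, pH 8.0, incubated 15 min at room temperature, then read with 547 nm excitation and 598 nm emission filters. Fluorescence was converted to dye-equivalent concentration using an on-plate six-point resorufin standard curve.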
# * hit, by the source's call; i = inactive; u = inconclusive; x = not tested or not shown; & = joins results of further samples; [ ] = remark or other dose. These rows are one share of the data, so the mix of outcomes need not match the whole.
SMILES,A488 autofl,TSHR agonist,A647 autofl,AID923,Resorufin autofl
Cc1nn2c(c1-c1ccccc1)N=C(c1ccco1)CC2c1ccccc1 (configuration not stated),i,x,3.8e-08,6.2%,i
COc1cc(OC)cc(C(=O)NCC2CCCO2)c1 (configuration not stated),x,7%,x,-0.4%,x
COc1ccc(C2C(C(=O)OC3CCCCC3)=C(C)Nc3nnnn32)c(OC)c1OC (configuration not stated),i,10%,2.8e-08,-1.4%,i
Cc1nnc(SCC(=O)N(C)Cc2ccccc2)[nH]c1=O,i,8%,3.9e-08,-1.8%,i
CCN(CC(=O)NC1CCCC1)S(=O)(=O)c1ccc(C)cc1,i,-7%,2.9e-08,-1.5%,i
COc1ccc(C(=O)Nc2ccc(S(=O)(=O)Nc3cc(C)nc(C)n3)cc2)c(OC)c1,x,5%[11.4 µM],x,0.6%,x
CC(C)CCOC(=O)/C=C/c1ccccc1,x,15%,x,3.9%,x
CC(C)Oc1cc2oc(=O)c3c(c2cc1Cl)CCC3,i,u,2.2e-08,3.4%,i
COC(=O)C1=C(NC(=O)c2ccc(C)cc2)CCS1,i,13%,1.4e-08,3.3%,i
O=C(CCN1CCc2ccccc2CC1)c1ccc2c(c1)OCCO2,i,x,8.6e-08,x,i
O=C(Nc1cccc(F)c1)c1c(F)c(F)c(F)c(F)c1F,i,x,1e-09,-1.3%,i
O=C1CCCC2=C1C(c1ccccc1)CC(=O)N2c1ccccc1 (configuration not stated),i,6%,1e-09,-1.2%,i
Cc1ccc(Cn2c(=O)n(Cc3ccco3)c(=O)c3ccccc32)cc1,i,u,3.2e-08,0.0%,i
O=C(NCCc1ccccc1)C1CC(=O)N(C2CCCCCC2)C1 (configuration not stated),i,25%,8.5e-09,-0.8%,i
Cc1nc2nc(-c3cccnc3)nn2c(C)c1Cl,i,-2%,4.6e-09,0.0%,i
Cc1ccc(C)c2[nH]c(=O)c(CN(Cc3ccc4c(c3)OCO4)Cc3nnnn3Cc3ccco3)cc12,i,u,3.1e-08,11%,i
CCc1nc(N)c(C#N)c(-c2ccc(OC)c(OC)c2)c1C,i,9%,4.7e-09,1.8%,i
O=C(CN1C(=O)CNC1=O)Nc1cccc(C(F)(F)F)c1,i,9%,1.6e-08,1.5%,i
Cc1ccc(-n2c3c(cc(C(=O)Nc4cccc(C)n4)c2=O)C(=O)CCC3)cc1,i,-4%,1e-09,0.7%,i
CC(C)Cc1ccc(S(=O)(=O)N2CCN(C(=O)c3ccco3)CC2)cc1,i,u,2.9e-08,-0.4%,i
O=C(CSc1nc2ccccc2[nH]1)NCc1ccco1,x,-5%,x,0.0%,x
c1cc(CN2CCCCC2)cc(OCCCNc2nc3ccccc3s2)c1,i,20%&-32%,2.3e-09,-2.0%&-5.0%,i
Cc1ccc(C(=O)NC2CCS(=O)(=O)C2)cc1S(=O)(=O)N1CCCCC1 (configuration not stated),i,2%,1.5e-08,-0.5%,i
Cc1c(C2(O)C(=O)Nc3ccc(F)cc32)c(=O)n(-c2ccccc2)n1C (configuration not stated),i,-5%,8.4e-09,-1.5%,i
OCCn1c(CSc2nc3ccccc3n2CCO)nc2ccccc21,x,5%,x,5.1%,x

# Other structures.
SMILES,A488 autofl,TSHR agonist,A647 autofl,AID923,Resorufin autofl
O=C(N1CCOCC1)N1CCCC(c2nc(-c3cccs3)no2)C1 (configuration not stated),i,1%,7.1e-09,0.6%,i
COc1cc(C2C3C(C)N(C)C(=O)N(C)C3N(C)C(=O)N2C)ccc1O (configuration not stated),i,-2%,5.9e-09,-0.2%,i
CCCCCOC(=O)Cn1c(N2CCCCCC2)nc2c1c(=O)[nH]c(=O)n2C,i,-4%,3.4e-08,-0.2%,i
N#Cc1ccc(CN2CCN(C(=O)c3ccccc3)CC2)c(Cl)c1,i,-1%,1.6e-08,-1.1%,i
CC(C)(C)N1C(=O)[C@H]2[C@H]3[C@H](O)[C@H](O)C/C(=N/OCc4ccccc4)[C@H]3CC[C@@H]2C1=O,x,-1%[11.4 µM],x,-0.7%[11.5 µM],x
Nc1nc2sc3c(c2c(=O)s1)CCCC3,i,2%,1.1e-08,-0.7%,i
COc1ccc(-n2nnnc2S(=O)(=O)Cc2ccc(C(=O)O)cc2)cc1,i,5%,3.4e-09,-1.5%,i
CCCn1c(-c2ccc(F)cc2)nc2c(N3CCN(Cc4nc(OC)cc(OC)n4)CC3)nc(C)nc21,x,u,x,1.2%,x
COc1cccc(-c2ccc3ncnc(NC4CC4)c3c2)c1,i,x,3.3e-08,-1.9%,i
CCOC(=O)Cc1csc(NC(=O)c2c(-c3c(F)cccc3Cl)noc2C)n1,i,u,4.5e-09,-0.4%,i
OC[C@H]1O[C@H](n2cnc3c(NC4CCCC4)nc(Cl)nc32)[C@@H](O)[C@@H]1O,x,16%,x,-2.4%,x
CC1CCN(C(=O)CN(c2ccc3c(c2)OCO3)S(C)(=O)=O)CC1,i,-1%,9.6e-09,-1.0%,i
Cc1cc2ncn(C(=O)N3CCCCC3)c2cc1C,i,10%,5.8e-08,1.5%,i
Cn1cc(-c2nc3cncnc3n(CCN)c2=O)c2ccccc21,i,-8%,1e-09,5.8%,i
O=C(CCCC(=O)N1CCN(c2ccccc2F)CC1)N1CCN(c2ccccc2F)CC1,i,u,1e-09,-0.1%,i
CCc1c(C(=O)Nc2ccc(OC)c(Cl)c2)[nH]c(C)c1C(C)=O,i,9%,2.4e-09,-0.8%,i
COCCCNC(=O)CS(=O)Cc1nc(-c2cccc(OC)c2)oc1C (configuration not stated),i,-3%,7.5e-09,0.1%,i
Cc1cccc(C)c1NS(=O)(=O)c1c(C)[nH]c(=O)[nH]c1=O,i,-2%,6.9e-09,-0.2%,i
CCOC(=O)N1CCN(C2=CC(=O)OC23CCCCC3)CC1,i,-4%,1e-09,0.0%,i
CC(=O)Nc1ccc(S(=O)(=O)NCCc2cc3c(C)ccc(C)c3[nH]c2=O)cc1,x,u,x,-1.7%,x
N[C@@H](C(=O)O)c1ccc(C(=O)O)cc1,x,2%&4%,x,-1.2%&-2.9%,x
O=C1COc2ccc(C(=O)COC(=O)Cn3cnc4ccccc43)cc2N1,i,4%,1e-09,1.4%,i
Cc1ccccc1OCC(=O)Nc1ccccc1N1CCCCC1,i,u,2.9e-08,-0.7%,i
CCCn1c(C)nc2c(NCCCN(CCO)CCO)nc(C)nc21,x,2%,x,-0.4%,x
Oc1c(CN2CCCCC2)cc(COCc2ccccc2)c2cccnc12,i,-8%,1e-09,1.1%,i

# Later entries
SMILES,A488 autofl,TSHR agonist,A647 autofl,AID923,Resorufin autofl
Cc1nc(NCc2ccccn2)c2ccccc2n1,i,u,7e-09,-0.1%,i
CC1(C)NC(=O)N(CC(O)COc2cccc(F)c2)C1=O (configuration not stated),x,0%,x,-2.3%,x
COc1ccc(CN2C(=O)CCC2(C)C(=O)NCc2cccnc2)c(OC)c1 (configuration not stated),i,1%,3.4e-08,-0.5%,i
O=S(=O)(c1ccc(Cl)c(F)c1)N1CCC(c2nc(-c3ccncc3)no2)CC1,i,u,6.5e-09,-4.5%,i
Cc1nc2ccccc2c(=O)n1NC(=O)C1CCCCC1,i,7%,1.9e-08,-0.8%,i
C/C=C(/C(=C/C)c1ccc(O)cc1)c1ccc(O)cc1,i,x,1e-09,-1.5%,i
Cc1ccc(-c2noc(CCC(=O)NC3CCN(Cc4ccccc4)CC3)n2)cc1,i,u,1e-09,-1.0%,i
CCOC(=O)c1sc(NC(C)=O)cc1C,x,-5%,x,-4.4%,x
CCC(=O)N(Cc1cc2cc(OC)ccc2[nH]c1=O)c1ccc(C)cc1C,i,u,4.8e-09,-1.3%,i
N#CC(C(=O)OCc1ccccc1)c1nc2ccccc2nc1N1CCOCC1 (configuration not stated),i,u,3.6e-08,14%,i
CCCS(=O)(=O)N1CCCC(c2nc(-c3cccc(OC)c3)no2)C1 (configuration not stated),i,u,1e-09,-1.2%,i
O=C(O)C1CC(=O)N(Cc2ccc3c(c2)OCO3)C1 (configuration not stated),i,3%,4.1e-09,1.6%,i
CC(C)CCNC(=O)C1CCN(C(=O)N(C)C)CC1,i,7%,1.8e-08,0.5%,i
CCCCCCNc1cc2n(c(=O)n1)CCc1cc(OC)c(OC)cc1-2,i,x,1.9e-08,0.6%,i
COC(=O)[C@@]1(Cc2ccc(F)cc2)[C@H]2c3cc(C(=O)N(C)C)n(CCc4c[nH]c5ccc(OC)cc45)c3C[C@H]2CN1C(=O)c1ccccc1,x,-1%,x,-0.8%,x
O=c1[nH]c(CSc2nnc(-c3ccco3)n2-c2ccccc2)nc2sc3c(c12)CCC3,i,x,3.3e-09,1.8%,i
Cc1c(C(=O)NCC2CCCO2)oc2ccc(S(=O)(=O)N3CCCCC3)cc12 (configuration not stated),x,6%,x,1.6%,x
CC(C)CC(=O)NC1(C(F)(F)F)C(=O)Nc2c1c(=O)n(C)c(=O)n2C (configuration not stated),i,-3%,6.6e-09,-1.2%,i
CCSc1ncnc2c1oc1ccccc12,i,6%,2.6e-08,0.8%,i
COc1cc(OC)cc(C(=O)Nc2ccc3c(c2)COC3=O)c1,i,9%,4.1e-09,-1.2%,i
Cc1nc(C)c(C(=O)C2=C(O)C(=O)N(CCN(C)C)C2c2cccs2)s1 (configuration not stated),i,-6%,6.7e-09,1.5%,i
CCCC12CN3CC(C)(CN(C1)C3c1ccc(OC(C)C)cc1)C2=O (configuration not stated),i,21%,9.9e-09,0.5%,i
O=C1C(C=NCC2CCCO2)=C(O)c2ccccc21 (configuration not stated),x,-5%[11.4 µM],x,1.2%,x
COc1ccc(C(c2nnnn2CCc2ccccc2)N2CCN(C3CCCC3)CC2)cc1OC (configuration not stated),i,10%,1.3e-09,-0.4%,i
COc1ccc(-n2c(Cc3cccn3C)nnc2SCC(=O)NCc2ccccc2Cl)cc1,x,7%,x,1.0%,x

# Sorted by number of heavy atoms (rising): part of the list above.
SMILES,A488 autofl,TSHR agonist,A647 autofl,AID923,Resorufin autofl
CCSc1ncnc2c1oc1ccccc12,i,6%,2.6e-08,0.8%,i
Cc1cc2ncn(C(=O)N3CCCCC3)c2cc1C,i,10%,5.8e-08,1.5%,i
O=C(CN1C(=O)CNC1=O)Nc1cccc(C(F)(F)F)c1,i,9%,1.6e-08,1.5%,i
CCc1nc(N)c(C#N)c(-c2ccc(OC)c(OC)c2)c1C,i,9%,4.7e-09,1.8%,i
COc1cc(OC)cc(C(=O)Nc2ccc3c(c2)COC3=O)c1,i,9%,4.1e-09,-1.2%,i
O=C(N1CCOCC1)N1CCCC(c2nc(-c3cccs3)no2)C1 (configuration not stated),i,1%,7.1e-09,0.6%,i
COc1ccc(C(=O)Nc2ccc(S(=O)(=O)Nc3cc(C)nc(C)n3)cc2)c(OC)c1,x,5%[11.4 µM],x,0.6%,x

# Later entries:
SMILES,A488 autofl,TSHR agonist,A647 autofl,AID923,Resorufin autofl
COc1ccc(NC(=O)N2CC3(CCN(C(=O)c4c(C)noc4C)CC3)C2)cc1,i,u,2.7e-08,1.2%,i
O=C(Cn1cc(C(=O)C2CC2)c2ccccc21)NCC1CCCO1 (configuration not stated),i,-1%,3.1e-08,-2.5%,i
O=C(c1ccco1)N1CCN(C(=O)C2CCN(S(=O)(=O)c3cnc[nH]3)CC2)CC1,i,5%,1.2e-08,-0.5%,i
COc1ccc(C(=O)N2CCC3(CC2)CN(C(=O)Nc2cccc(C#N)c2)C3)cc1,i,x,1e-09,-2.3%,i
Cc1ccc(Cl)cc1N1CCN(C(=O)CCC(=O)O)CC1,i,-9%,3.2e-09,-0.8%,i
COCCCN1C(=O)c2[nH]nc(-c3cc(C)cc(C)c3O)c2C1c1ccc(O)c(OC)c1 (configuration not stated),i,u,1e-09,-3.1%,i
